# Compound activity as filed in PubChem.
# PMP22 txn prim: PMP22 gene transcription modulation; Potency, µM (doses to about 57.5 µM), inactives show at the highest dose activity change, negative = inhibition, most hits filed as inhibitors; S16 Pmp22-F2sN Schwann cells (luciferase reporters placed in the Pmp22 gene), FLuc/NLuc coincidence luminescence, 24 h; 43,000 compounds, 2% hits; active = clear falling dose curves in both reporters; inconclusive = both reporters move, but less clearly or upward; inactive = either reporter flat; the % is the NLuc reporter signal; also: % is scaled to controls: 0 for no effect and ±100 for the full control effect; some results filed as inactive show a strong effect at the top dose
#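 Reporter cells (S16 Pmp22-F2sN, 500–1,000 per well) exposed to compounds for 24 h, 37C, 5% CO2; lysis with FLuc read after 10 min, then Stop&Glo and NLuc read after 10 min.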
# HTT prom inh: inhibitors of huntingtin promoter activity | HEK293 HTT promoter firefly luciferase reporter (activity 0% = vehicle and -100% = no light), 24 h | Potency, µM (series often up to 57.5 µM), for the others: at the highest dose activity change, negative = inhibition, actives largely listed as inhibitors | 48,000 compounds, 0.93% hits | AID 1508623; active = well fitted inhibition curve with a large enough effect; inconclusive = small, poorly fitted or top-dose-only effect; inactive = no such curve, though single readings can be large or run the other way; also: nearly all actives have a fitted effect of over 50% in size
#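 HEK293 Fluc reporter, 2,500 cells/well, 24 h pre-culture; cpds up to 57.5 uM final, 24 h 37 degrees C; Dual-Glo, 10 min RT; normalized vehicle = 0%, zero RLU = -100%.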
# * hit, by the source's call; ? = inconclusive; [ ] = another dose, or the depositor's remark. Potency is read from the fitted curve at half-maximal effect. Rows are unselected. Share with any hit: about 2.4%.
SMILES,PMP22 txn prim,HTT prom inh
CCOC(=O)Cn1c(=O)n(CC2CCCO2)c2nc(-c3ccccc3F)nc(C(N)=O)c21 (stereo not drawn),-13%,-15%
COc1ccc(-c2noc(-c3ccc(N4CCN(C)CC4)c([N+](=O)[O-])c3)n2)cc1OC,?,29%
CCn1cc(C(=O)N2CCN(c3ccccc3)CC2)c(=O)c2cc(S(=O)(=O)N(C)C)ccc21,-4%,-6%[11.5 µM]
CC(=O)c1cccc(NS(=O)(=O)c2cc(-c3cnc(C4CC4)o3)ccc2C)c1,17µM*,?
CCCNC(=O)c1ccc2c(c1)nc1n2CCCCC1,-7%,57%[activator]
CCN(CC)C(=O)CSc1nc(-c2ccccc2F)nc2c1Cc1c(CO)cnc(C)c1O2,?,-24%
CC(=O)c1ccc(N2CCN(S(=O)(=O)c3cc(-c4onc(C)c4C)ccc3C)CC2)cc1,10µM*,?
Cc1nc(-c2cccc(NC(=O)Nc3ccc([N+](=O)[O-])cc3)c2)no1,?,?
CC(=O)c1cccc(NC(=O)c2sc(-n3nc(C)c(Cc4ccccc4)c3C)nc2C)c1,-23%,-26%
Cc1ccccc1Nc1cc(C(=O)NC2CCCCC2)c2ccccc2n1,-41%,2%
CCOC(=O)c1cc(-c2ccccc2)n(-c2cccc(C(=O)N(CC)c3ccccc3)c2)c1C,?,-17%
CCC(=O)N1CCc2cc(Br)cc(S(=O)(=O)N3CCC(C(=O)N(CC)CC)CC3)c21,?,-2%
Cc1ccc(CNC(=O)CSc2nc(=O)n(Cc3ccco3)c3c2CCC3)cc1,?,9%
CCC(C)NC(=O)c1sc2nc(C)c(C(=O)Nc3ccc(C)cc3C)c(-c3ccc(Cl)cc3)c2c1N (stereo not drawn),2%,-8%
COc1ccc(-c2cc(C(=O)NCCc3ccc(Cl)cc3)[nH]n2)cc1,-11%,-9%
COc1ccc(Cn2c(C(=O)O)c(CNCCc3cccs3)c3ccc(C)cc32)cc1,?,-19%
CCCc1ccc(OCC(=O)Nc2sc3c(c2C(=O)OC)CCCCC3)cc1,-5%,-6%
COc1cc(OC)cc(-c2nc3n(n2)C(c2ccccc2F)C(C(=O)Nc2cccnc2)=C(C)N3)c1 (stereo not drawn),-4%,-27%
Cc1cc(=O)[nH]c2nnc(SCc3ccc(C(F)(F)F)cc3)n12,22%,-12%
COc1cccc(-n2c(SCC(=O)N3CCc4ccccc43)nc3c([nH]c4ccccc43)c2=O)c1,?,-4%

# Complete entries, quoted from the list. Screens in order: PMP22 txn prim, HTT prom inh
# Profile of COc1cc(OC)cc(-c2nc3n(n2)C(c2ccccc2F)C(C(=O)Nc2cccnc2)=C(C)N3)c1 (stereo not drawn) : -4%, -27%
# Profile of Cc1ccccc1Nc1cc(C(=O)NC2CCCCC2)c2ccccc2n1 : -41%, 2%
# Profile of CCCc1ccc(OCC(=O)Nc2sc3c(c2C(=O)OC)CCCCC3)cc1 : -5%, -6%
# Profile of CCOC(=O)c1cc(-c2ccccc2)n(-c2cccc(C(=O)N(CC)c3ccccc3)c2)c1C : ?, -17%
# Profile of Cc1cc(=O)[nH]c2nnc(SCc3ccc(C(F)(F)F)cc3)n12 : 22%, -12%

# Next structures follow:
SMILES,PMP22 txn prim,HTT prom inh
Cc1ccc(NC(=O)Nc2nnc(SCC(=O)Nc3ccc(F)cc3F)s2)cc1,-27%,-19%
Cc1cccc(NC(=O)C2CCC(CNS(=O)(=O)c3csc(C(N)=O)c3)CC2)c1C (stereo not drawn),-6%,-24%
CCOC(=O)C1CCCN(C(=O)c2ccc3c(c2)N(Cc2ccc(Cl)cc2)C(=O)c2ccccc2S3=O)C1 (stereo not drawn),?,-27%
CC(C)(C)OC(=O)N1CCC(c2c(C(=O)NCc3ccco3)cnn2-c2ccc(F)cc2F)CC1,-16%,-6%
O=C(Nc1ccc(F)c(F)c1)C1CCCN(S(=O)(=O)c2cccc3nonc23)C1 (stereo not drawn),-10%,-12%
CCOc1ccc(NC(=O)Cn2c(C)ccc(C#N)c2=O)cc1,0%,-7%
COc1cccc2cc(-c3cn4c(n3)sc3cc(F)ccc34)c(=O)oc12,?,-4%
COc1cc(NC(=O)C(=O)Nc2ccc3nc4n(c(=O)c3c2)CCCCC4)cc(OC)c1OC,-8%,-25%
O=C(O)c1cccc(Nc2ncnc3scc(-c4ccccc4)c23)c1,?,-21%
CCOc1ccc(NC(=O)CSc2oc(-c3ccco3)nc2S(=O)(=O)c2ccc(C)cc2)cc1,54%,?
COc1cccc(C2C(C(N)=O)=C(C)Nc3nc(CCCO)nn32)c1 (stereo not drawn),0%,-8%
COCCCNC(=O)c1sc2nc(C)c(C(=O)Nc3ccc(C)cc3C)c(-c3ccc(Br)cc3)c2c1N,7%,?
Cc1cccc(N2CCN(C(=O)c3cc4c(=O)oc5ccccc5c4s3)CC2)c1C,3%,-4%
COc1cc2c(cc1OC)C(COc1ccc(C(C)C)cc1)N(C(=O)c1ccc(S(=O)(=O)N3CCCC3)cc1)CC2 (stereo not drawn),?,-61%
CCOc1ccc(NC(=O)CCn2c(=O)c3cccn3c3cccnc32)cc1,-1%,-1%
Cc1ccc(-c2noc(-c3ccccc3OCC(=O)Nc3ccccc3[N+](=O)[O-])n2)cc1,-4%,11%
Cc1cccc(NC(=O)c2oc3ccccc3c2NC(=O)Cc2coc3ccc(C(C)C)cc23)c1,2%,33%[activator]
CCc1cccc(NC(=O)C2CCN(S(=O)(=O)c3cccc(-c4noc(C)n4)c3)CC2)c1,-22%,?
CCC(CO)NC(=O)C(=O)Nc1c2c(nn1-c1ccc(F)cc1)CSC2 (stereo not drawn),-15%,-21%
Cc1ccc(CN(C(=O)COc2ccc(C(C)(C)C)cc2)C2CCS(=O)(=O)C2)o1 (stereo not drawn),?,-24%

# Compounds from the list above that contain bromine (2):
SMILES,PMP22 txn prim,HTT prom inh
CCC(=O)N1CCc2cc(Br)cc(S(=O)(=O)N3CCC(C(=O)N(CC)CC)CC3)c21,?,-2%
COCCCNC(=O)c1sc2nc(C)c(C(=O)Nc3ccc(C)cc3C)c(-c3ccc(Br)cc3)c2c1N,7%,?

# The main list resumes, starting 3 compounds before the break.
SMILES,PMP22 txn prim,HTT prom inh
CCc1cccc(NC(=O)C2CCN(S(=O)(=O)c3cccc(-c4noc(C)n4)c3)CC2)c1,-22%,?
CCC(CO)NC(=O)C(=O)Nc1c2c(nn1-c1ccc(F)cc1)CSC2 (stereo not drawn),-15%,-21%
Cc1ccc(CN(C(=O)COc2ccc(C(C)(C)C)cc2)C2CCS(=O)(=O)C2)o1 (stereo not drawn),?,-24%
Cc1ccc(-n2c(=O)c3c(cnn3C)n(CC(=O)Nc3ccccc3C)c2=O)cc1,0%,-2%
CCn1nc(C)c2c(-c3ccccc3)cc(=O)n(C(C)C(=O)NCc3cccc(OC)c3)c21 (stereo not drawn),-3%,-9%
CN(C)c1ccc(CN(CC2CCCO2)C(=O)c2ccc(Br)cc2)cc1 (stereo not drawn),12%,-17%
Cc1ccc(NC(=O)Cn2c(CCC(=O)O)ccc2-c2ccc(Cl)cc2)cc1,-5%,-12%
COc1ccccc1NC(=O)Cn1cnc2ccc(S(=O)(=O)N3CCC(C)CC3)cc2c1=O,-11%,-16%
COc1ccc(CNC(=O)c2cc(=O)[nH]c3ccc(S(=O)(=O)N4CCCC4)cc23)c(OC)c1,-14%,-22%
CCNC(=O)C1CCN(c2nc3ccccc3nc2C(F)(F)F)CC1,-7%,-4%
COc1ccc(CCNC(=O)Cn2cc(S(=O)(=O)Cc3ccccc3F)c3ccccc32)cc1OC,-26%,-9%
COc1ccc(OC)c(CNC(=O)c2ccc(Sc3ccc(Cl)cc3)c(NC(C)=O)c2)c1,-25%,-28%
COC(=O)c1c(-c2cccs2)csc1NC(=O)c1ccc(OC)c(OC)c1,-29%,1%
CCOC(=O)c1ccc(NC(=O)CSc2nccn2-c2cc(C)cc(C)c2)cc1,-20%,-23%
N#Cc1ccc(-c2cccs2)nc1SCc1c(F)cccc1Cl,?,?
Cc1ccc(C(=O)Nc2cc3nn(-c4ccccc4)nc3cc2Cl)c(C)c1,-14%,0%
COc1cccc(C2C(C(=O)Nc3ccc(C)cc3C)=C(C)Nc3c(C(=O)Nc4ccccc4)cnn32)c1 (stereo not drawn),?,-19%
COc1ccc(Cn2c(CO)cnc2SCc2ccc(F)cc2)cc1,?,32µM*
Cc1cc(C)cc(-n2c(SCC(=O)N3CCCCCC3)nc3c([nH]c4ccccc43)c2=O)c1,?,-15%
CCOc1ccccc1CNC(=O)C1CCN(C2=NS(=O)(=O)C(c3ccc(C)c(C)c3)=C2C)CC1,-27%,-22%
Cc1ccccc1NC(=O)[C@H](CSCc1ccccc1)N1Cc2ccccc2C1=O,2%,-9%
COc1ccc2c(c1)CCc1sc(NC(=O)c3ccc(Br)cc3)nc1-2,-24%,?
CCOc1ccc(NC(=O)Cn2c(CCC(=O)O)ccc2-c2ccc(C)cc2)cc1,-2%,-3%
Cc1ccc2[nH]c(CSc3nnc(C)s3)cc(=O)c2c1,3%,1%
Cc1ccc(C)c(NC(=O)C2CCCN(c3ncnc4onc(C)c34)C2)c1 (stereo not drawn),-13%,-11%
CC1C(=O)N2CCCc3cc(S(=O)(=O)Nc4ccc(Br)cc4F)cc1c32 (stereo not drawn),4%,-9%
COc1ccccc1N1CCN(Cc2cc(COC(C)C)c3cccnc3c2O)CC1,3.5µM*,?
O=C(NCCc1ccc(Cl)cc1)c1cnc2sc(N3CCCC3)nn2c1=O,0%,-23%
CCCN(C(=O)Cn1ncc2c1-c1ccccc1OC2)c1cccc(C)c1,-21%,-30%
COc1ccccc1NC(=O)CSCc1cc(=O)c2c(C)cc(C)cc2[nH]1,19%,-3%
CCCN(C(=O)Cn1ncc2c([nH]c3ccc(C)cc32)c1=O)c1ccccc1C,8%,1%
Cc1ccc(OCC(=O)Nc2nnc(S(=O)(=O)N3c4ccccc4CC3C)s2)cc1 (stereo not drawn),7%,-12%
Cc1ccc(F)cc1S(=O)(=O)N1CCC(c2nc3ccccc3s2)CC1,-23%,?
COc1cccc2cc(C(=O)Nc3ccc(C)cc3)c(=O)oc12,-18%,78%[activator]
CCCCN1C(=O)C(O)(c2c(C)[nH]c3ccccc23)c2cc(Br)ccc21 (stereo not drawn),?,?
CCOc1ccccc1NC(=O)CN1C(=O)CC(c2ccco2)Sc2ccccc21 (stereo not drawn),?,?
CCOC(=O)CNC(=O)Cn1nc(N2CCN(c3ccccc3)CC2)ccc1=O,4%,2%
O=c1c(-c2cc(-c3ccc(Cl)cc3)nc3c2COc2ccccc2-3)coc2ccccc12,-5%,-9%
CCSc1nnc(NC(=O)c2cc(=O)c3cc(C)ccc3o2)s1,-13%,4%
CCc1ccc(CNCc2c(C(=O)O)n(Cc3cccc(F)c3)c3cc(OC)ccc23)cc1,?,?
Cc1ccc(S(=O)(=O)N2CCCc3cc(NC(=O)c4ccc(F)c(F)c4)ccc32)cc1,?,?
CCN(CC)c1cc2c(cc1F)c(=O)c(S(=O)(=O)c1ccc(C)cc1)cn2Cc1ccc(F)cc1,-5%,-7%
COc1cc(OC)c(NC(=O)c2cnn(-c3ccccc3)c2-n2cccc2)cc1Cl,-2%,-11%
COc1ccc(CC(=O)NC2CC(=O)N(c3cccc(F)c3)C2)cc1 (stereo not drawn),11%,0%
Cc1cc(C)c(S(=O)(=O)NCCS(=O)(=O)N2CCN(c3ccccc3)CC2)c(C)c1,?,?
CCOC(=O)c1cnc2c(C)cc(Cl)cc2c1NCCc1ccc(OC)c(OC)c1,-16%,1%
Cc1nc2ccc(S(=O)(=O)N(C)CC(=O)Nc3ccc(Br)c(C)c3)cc2s1,-26%,?
Fc1cc(F)c2ncc3c(-c4ccccc4)nn(-c4cccc(Cl)c4)c3c2c1,-8%,-2%
CCCCNC(=O)c1sc2ncccc2c1-n1cccc1,-6%,1%
COc1ccc(-n2nc(C(=O)Nc3ccc(C)cn3)c3c4ccccc4n(C)c3c2=O)cc1Cl,-14%,-7%
COc1cc(NC(=O)C(NC(=O)C2CCC(C)CC2)C(C)C)cc(OC)c1OC (stereo not drawn),3%,10%
COc1cc(OC)c(NC(=O)CN2CCCN(Cc3ccccc3C)S2(=O)=O)cc1Cl,-16%,0%
COc1cc(C(=O)Nc2nnc(S(=O)(=O)N(C)c3ccccc3)s2)cc(OC)c1OC,-60%,-8%
Cc1ccc(NC(=O)CSc2nc(=O)n(CCCN(C)C)c3c2CCC3)cc1F,-24%,-7%
Cc1ccc(S(=O)(=O)c2nc(-c3ccco3)oc2SCC(C)C)cc1,-3%,-30%
CC(C)(C)n1cnc2cc(NCc3ccccc3Cl)ccc21,?,13%
CCOc1ccccc1NC(=O)CCS(=O)(=O)c1cccc2nsnc12,-16%,-7%
O=C(Cn1cc(SCc2ccc(C(F)(F)F)cc2)c2ccccc21)N1CCCCCC1,?,-24%
Cc1sc2ncn(CC(=O)N3CCN(c4ccc(F)cc4)CC3)c(=O)c2c1S(=O)(=O)N1CCC(C)CC1,5%,-27%
COc1cccc(CN(Cc2ccco2)c2cnc(S(C)(=O)=O)nc2C(=O)Nc2cccc(Cl)c2C)c1,-8%,?
Cc1cccc(N2CCN(C(=O)Cn3nc(C)c4sc5ccccc5c4c3=O)CC2)c1C,?,-4%
